High-throughput results deposited in PubChem by several laboratories.
eIF4H inh: inhibitors of RNA binding by human eIF4H; eIF4H fluorescence polarization binding assay; inhibition, % at 35 µM; hit rate 0.94% among 290,000;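 active means 50% or more with normal probe brightness, or confirmed in later tests; about a fifth of its hits are not listed in these tables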;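 further: calls also rest on retests at 20 µM and on dose response follow-up; 0% = protein and probe with vehicle and 100% = probe without protein; strong numbers were not always called active; many hits fall short of the cut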
CSC inhib: cancer stem cell inhibition; cancer stem cell-like cells viability, luminescence; inhibition, % at 7.5 µM; hit rate 1.1% among 300,000; AID 2717;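 active means mean at 75% or more and at least half the replicates too; tested in HMLE shEcad cells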;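 further: 0% = median of negative and 100% = median of positive control wells; the first replicate is given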
Rce1 inh: blocks yeast Ras-converting enzyme | Q03530 | yeast membranes, quenched prenylated peptide cleavage fluorescence | calls only | hit rate 0.27% among 290,000 | AID 2563;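 active means fall in fluorescence gain of 50% or more versus controls, with final raw signal at or below 3038400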;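 further: plate controls were neutral control wells for no effect and wells lacking membranes for full effect; tested at 10 µM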
Target sequence (Q03530 whole entry, looked up): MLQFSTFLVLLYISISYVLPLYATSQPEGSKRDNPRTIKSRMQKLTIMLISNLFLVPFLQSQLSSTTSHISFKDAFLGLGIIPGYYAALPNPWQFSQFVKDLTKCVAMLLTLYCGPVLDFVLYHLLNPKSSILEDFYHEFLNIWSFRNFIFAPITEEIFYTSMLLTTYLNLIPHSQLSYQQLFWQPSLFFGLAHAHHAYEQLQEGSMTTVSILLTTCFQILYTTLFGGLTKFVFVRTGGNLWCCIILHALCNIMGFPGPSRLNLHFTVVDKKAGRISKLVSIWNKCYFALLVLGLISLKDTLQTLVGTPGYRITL
PABP FP inh: PABP-poly(A) binding inhibition. P11940. PABP-poly(A) RNA binding, fluorescence polarization. inhibition, % at 35 µM. hit rate 1% among 290,000;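 active means 50% or more with normal probe brightness, or confirmed in later tests; about a fifth of its hits are not listed in these tables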;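 further: calls also rest on retests at 20 µM and on dose response follow-up; controls were probe without protein and protein plus probe with vehicle; some compounds called inactive have numbers as strong as hits; many hits fall short of the cut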
Env fusion inh: inhibitors of HIV Env-mediated cell fusion; HeLa-JRFL Env/CEM21 cell fusion, luciferase; inhibition, % at 12.3 µM; hit rate 1.1% among 360,000; AID 651610;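 active means mean replicate inhibition score of at least 50 and every replicate individually at or above 50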;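 further: 0% = plate neutral controls and 100% = maraviroc near 300 nM; one replicate is shown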
UUG fidelity: yeast start codon fidelity modulation. S. cerevisiae UUG-firefly luciferase reporter, luminescence/redox ratio. hit rate 0.13% among 350,000. AID 602363. activity score, % at 18.7 µM;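 active means replicate mean at a twofold rise or more, about +100% in these data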;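 further: firefly luciferase made from a UUG start codon reports start codon fidelity; reporter light over untreated wells divided by growth signal over untreated wells; some hits fall short of that in this replicate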
MT1-MMP act inh: MT1-MMP (human) activation inhibition | P50281 | HT1080 RFP-PRO-GFP cells, GFP/RFP ratio fluorescence, overnight; percent of plate control window, DMSO zero | GFP/RFP ratio change, % at 20 µM | hit rate 0.061% among 360,000 | AID 651647;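 active means GFP/RFP ratio change of at least 30% with cell ATP level not reduced by more than half and red fluorescence within 50% of control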; further: strong numbers were not always called active
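Compound: 20 µM single dose, 1% DMSO / System: HT1080 RFP-PRO-GFP cells / Controls: DMSO and RFP-L50D-GFP cell wells / Read-out basis: GFP/RFP fluorescence ratio / Schedule: overnight compound exposure at 37 °C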
MT1-MMP act inh RFP: second read-out of MT1-MMP act inh, no call of its own (marks repeat the call); RFP signal change, %; measured here: RFP expression control read;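 0 = vehicle wells; hits needed this value within 50% of zero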
An asterisk follows results filed as active; i = inactive; . = not tested or not shown.

Key to letters: A = eIF4H inh; B = CSC inhib; C = Rce1 inh; D = PABP FP inh; E = Env fusion inh; F = UUG fidelity; G = MT1-MMP act inh; H = MT1-MMP act inh RFP
Cc1nnc2sc(SCc3ccc(Br)cc3)nn2c1=O
  A: -5 | B: 26 | C: i | D: -4 | E: 5 | F: . | G: -5 | H: 1

COc1ccc(C2(C(=O)c3ccccc3)C(=O)c3ccccc3C2=O)cc1
  A: -6 | B: 39 | C: i | D: 14 | E: . | F: -15 | G: 3 | H: 0

CCOC(=O)N/N=C\c1ccc(-c2cc(Cl)ccc2Cl)o1
  A: -11 | B: 10 | C: i | D: -13 | E: -18 | F: -19 | G: 0 | H: 0

O=C(O)c1cccc(-c2ccc(/C=N/n3cnc4sc5c(c4c3=O)CCCC5)o2)c1
  A: 28 | B: -9 | C: i | D: 25 | E: . | F: . | G: . | H: .

Cc1ccc(NC(=O)CN2C(=O)NC(Cc3ccccc3)C2=O)cc1 (stereo unspecified)
  A: 12 | B: -15 | C: i | D: -6 | E: . | F: -3 | G: -3 | H: 1

O=C(NCC(=O)N1CCN(S(=O)(=O)c2ccc3c(c2)OCCO3)CC1)c1ccccc1Cl
  A: . | B: -8 | C: . | D: . | E: . | F: -18 | G: 0 | H: 0

Fc1ccccc1/C=N/Nc1nn[nH]n1
  A: -10 | B: -7 | C: i | D: 11 | E: . | F: -13 | G: 1 | H: 0

O=C(CCNC(=O)N1CC(=O)Nc2ccccc21)NCc1ccccc1
  A: . | B: . | C: . | D: . | E: -5 | F: -4 | G: 2 | H: 5

CC(=O)Nc1cccc(Oc2nc(NCCN(C)C)nc3ccsc23)c1
  A: . | B: . | C: . | D: . | E: -17 | F: -2 | G: -1 | H: 3

NC(=S)Nc1cc(Cl)cc(Cl)c1
  A: 4 | B: -1 | C: i | D: 6 | E: -9 | F: -26 | G: 6 | H: 2

CC(C)(C)NC(=O)C(c1cccs1)N(CC1CCCO1)C(=O)Cn1nnc(-c2cccs2)n1 (stereo unspecified)
  A: -1 | B: -2 | C: i | D: -5 | E: . | F: -9 | G: 1 | H: 6

O=C(Cn1cnc2ccccc2c1=O)NCCC(=O)N1CCN(c2ccccc2)CC1
  A: -2 | B: . | C: i | D: 16 | E: 4 | F: -20 | G: 2 | H: 8

O=C(CCCc1c[nH]c2ccccc12)NCc1ccccc1F
  A: -4 | B: . | C: i | D: -3 | E: -14 | F: -1 | G: 2 | H: 2

COC(=O)c1sccc1NC(=S)N1CCCCC1
  A: -2 | B: -9 | C: i | D: -3 | E: -38 | F: -13 | G: 1 | H: 8

COc1ccc(CNC(=O)C2CCCN(S(=O)(=O)N3CC(C)CC(C)C3)C2)c(OC)c1 (stereo unspecified)
  A: . | B: -9 | C: i | D: . | E: 12 | F: -10 | G: -8 | H: -6

Nothing new here: entries from further up.
Key to letters: A = eIF4H inh; B = CSC inhib; C = Rce1 inh; D = PABP FP inh; E = Env fusion inh; F = UUG fidelity; G = MT1-MMP act inh; H = MT1-MMP act inh RFP
O=C(Cn1cnc2ccccc2c1=O)NCCC(=O)N1CCN(c2ccccc2)CC1
  A: -2 | B: . | C: i | D: 16 | E: 4 | F: -20 | G: 2 | H: 8

O=C(CCCc1c[nH]c2ccccc12)NCc1ccccc1F
  A: -4 | B: . | C: i | D: -3 | E: -14 | F: -1 | G: 2 | H: 2

COC(=O)c1sccc1NC(=S)N1CCCCC1
  A: -2 | B: -9 | C: i | D: -3 | E: -38 | F: -13 | G: 1 | H: 8

COc1ccc(CNC(=O)C2CCCN(S(=O)(=O)N3CC(C)CC(C)C3)C2)c(OC)c1 (stereo unspecified)
  A: . | B: -9 | C: i | D: . | E: 12 | F: -10 | G: -8 | H: -6

Profiles from above. Order of screens: eIF4H inh, CSC inhib, Rce1 inh, PABP FP inh, Env fusion inh, UUG fidelity, MT1-MMP act inh, MT1-MMP act inh RFP
`NC(=S)Nc1cc(Cl)cc(Cl)c1` is listed as 4, -1, i, 6, -9, -26, 6, 2
`Cc1ccc(NC(=O)CN2C(=O)NC(Cc3ccccc3)C2=O)cc1` (stereo unspecified) is listed as 12, -15, i, -6, ., -3, -3, 1
`COc1ccc(CNC(=O)C2CCCN(S(=O)(=O)N3CC(C)CC(C)C3)C2)c(OC)c1` (stereo unspecified) is listed as ., -9, i, ., 12, -10, -8, -6
`Fc1ccccc1/C=N/Nc1nn[nH]n1` is listed as -10, -7, i, 11, ., -13, 1, 0
`COC(=O)c1sccc1NC(=S)N1CCCCC1` is listed as -2, -9, i, -3, -38, -13, 1, 8

(more compounds)
Key to letters: A = eIF4H inh; B = CSC inhib; C = Rce1 inh; D = PABP FP inh; E = Env fusion inh; F = UUG fidelity; G = MT1-MMP act inh; H = MT1-MMP act inh RFP
CC(C)(C)C(=O)N1CCN(c2nc3ccccc3o2)CC1
  A: -8 | B: -6 | C: i | D: -7 | E: 8 | F: 3 | G: -2 | H: -7

CCCCc1nc2sc3c(=O)n(N)cnc3c2c2c1CCCC2
  A: -6 | B: -5 | C: i | D: 1 | E: -4 | F: . | G: 2 | H: 1

COC(=O)[C@@]12CCCCN1[C@H](c1ccc(-c3cccc(Cl)c3)c(OC)c1)[C@@H]1C(=O)N(C)C(=O)[C@@H]12
  A: . | B: 10 | C: i | D: . | E: 15 | F: 2 | G: -7 | H: -12

COc1ccc(CCn2c(-c3ccccc3)nc3c(c(=O)c4ccccc4n3C)c2=O)cc1
  A: -4 | B: 7 | C: i | D: -10 | E: -8 | F: . | G: . | H: .

c1ccc(CSc2n[nH]c(-c3ccco3)n2)cc1
  A: -4 | B: 5 | C: i | D: 0 | E: -40 | F: -18 | G: -5 | H: -1

COc1ccc2nc(NC(=O)Cn3cnc4c(=O)n(C)c(=O)n(C)c43)sc2c1
  A: -13 | B: -8 | C: i | D: 5 | E: -9 | F: . | G: -2 | H: -4

C[N+](C)(C)CCCCCCC(=O)/C=N/O
  A: -1 | B: -15 | C: . | D: -5 | E: 3 | F: . | G: 0 | H: 4

COc1cccc(OCC(Cn2cnc3ccccc32)OC(C)=O)c1 (stereo unspecified)
  A: -5 | B: -14 | C: i | D: -1 | E: -6 | F: . | G: 3 | H: 2

Cc1cccc(/C=C2\Sc3ccc(C(=O)N4CCOCC4)cc3N(C)C2=O)c1
  A: -17 | B: 16 | C: i | D: 11 | E: -5 | F: -1 | G: 1 | H: -6

C=CCn1c(SCC(=O)N2CCc3ccccc3C2)nnc1-c1ccncc1
  A: -1 | B: 5 | C: i | D: -5 | E: . | F: . | G: 3 | H: 1

Cc1ccc(-n2c(C)cc(/C=C3/C(=N)N4C(c5ccccc5)=CSC4=NC3=O)c2C)cc1
  A: 31 | B: 4 | C: i | D: -3 | E: 13 | F: . | G: -65 | H: -41

COC(=O)c1cccc(NC(=O)c2cccnc2C(=O)O)c1C
  A: 12 | B: 0 | C: i | D: 12 | E: -6 | F: -6 | G: 1 | H: 6

O=C(NCc1ccccc1)C1=C[C@@H](c2coc3ccccc3c2=O)C[C@@H](OCCCCO)O1
  A: 2 | B: 9 | C: i | D: -8 | E: 1 | F: 6 | G: 6 | H: 1

CC(C)[C@H](NC(=O)c1ccc(F)cc1)C(=O)N(C)Cc1cccs1
  A: . | B: -3 | C: . | D: . | E: . | F: -7 | G: -11 | H: -3

Cc1cccc(C)c1NC(=O)CNC(=O)c1cnccn1
  A: . | B: -14 | C: . | D: . | E: . | F: -16 | G: -3 | H: 3

N#Cc1ccc(C(=O)OCC(=O)N2CCN(C(=O)c3ccco3)CC2)cc1
  A: . | B: -3 | C: . | D: . | E: -66 | F: -7 | G: 5 | H: 3

O=C(c1ccccc1)c1ccc(OC(=O)N2CCCC2)cc1
  A: -2 | B: -4 | C: i | D: 4 | E: -12 | F: -5 | G: 3 | H: 2

CN1CCN(C(=O)c2ccccc2NC(=O)CCN2C(=O)c3ccccc3C2=O)CC1
  A: -2 | B: -7 | C: i | D: 1 | E: . | F: -20 | G: 3 | H: 1

COc1cc(NC(=O)CCCc2c[nH]c3ccccc23)cc(OC)c1
  A: -8 | B: 6 | C: i | D: 10 | E: 5 | F: . | G: 5 | H: -2

CCOc1ccc(C(=O)NC(=S)Nc2ncccc2C)cc1[N+](=O)[O-]
  A: -6 | B: -8 | C: i | D: -1 | E: . | F: . | G: 3 | H: 4

COc1ccc(OC)c(CNC(=O)CCN2C(=O)COc3ccccc32)c1
  A: -3 | B: -8 | C: i | D: 2 | E: . | F: -4 | G: 6 | H: 2
